Menin MLL FP FL – inhibitors of human menin-MLL interaction, wild-type MLL peptide | Fluorescence polarization, fluorescein-MLL peptide displacement from menin | FP activity change, % at 61.4 µM | 290,000 tested, under 10 active; inconclusive = falling polarisation curve, or a change in total fluorescence; inactive = total fluorescence flat and polarisation flat or rising; no compound was filed as active; the % refers to the polarisation; negative = inhibition;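 further: % of control where 0% means no effect; inhibitors lower the polarisation; unlabelled MLL peptide was the positive control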
TRPV1 potentiator – potentiators of human vanilloid receptor 1 (TRPV1); Q8NER1; TRPV1-expressing cells, Fluo-8 calcium influx, capsaicin EC20 potentiation; host cell line not named in the record; control for the full effect not named in the record; potentiation, % at 8.33 µM; 320,000 tested, 0.02% active; active means potentiation above 80%; inconclusive means 30% to 80%; inactive means below 30%; further: 0% is about no effect
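TRPV1-expressing cells were cultured overnight at 35.5C and loaded with Fluo-8 calcium dye for 40 to 90 min at room temperature. After a 10 s baseline, compound was added and calcium influx was read kinetically for 3 min (ex 480/em 520 nm).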
Sfp inh – inhibitors of Bacillus subtilis Sfp phosphopantetheinyl transferase | Q9F4F7 | Biochemical Sfp PPTase activity, qHTS | Potency, µM, for the others: max response, negative = inhibition, usual class: inhibitors | 310,000 tested, 3.5% active; active means well fitted inhibition curve with a large enough effect; inconclusive means small, poorly fitted or top-dose-only effect, or another doubt; inactive means no such curve, though single readings can be large or run the other way;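 further: the enzyme is Sfp with the accession as filed and its product quenches rhodamine fluorescence; potency means the concentration at half of the fitted maximal effect; 0% = enzyme reaction without inhibitor and -100% = no enzyme wells; top concentration of the series not given in the record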
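Fluorescence-quenching assay with 15 nM Sfp, 5 uM rhodamine-CoA and 12.5 uM BHQ-2-labelled ybbR peptide in pH 7.6 Hepes/MgCl2 buffer. Enzyme was pre-incubated with compound for 15 min at room temperature. Rate was taken from the 30-min fluorescence change (525/598 nm).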
gsp ag – agonists of gsp mutant (McCune-Albright syndrome) | AID 624287 | 340,000 tested, 0.13% active | gsp mutant cells, cAMP HTRF, 30 min; control for the full effect not named in the record | Potency, µM (top dose mostly 76.9 µM), inactives show top-dose activation (cAMP increase), usual class: activators; active = well fitted activation curve with a large enough effect; inconclusive = small, poorly fitted or top-dose-only effect, or another doubt; inactive = no such curve, though single readings can be large or run the other way; cell line not stated here;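 further: phosphodiesterase inhibitor Ro 20-1724 added with compounds to block cAMP breakdown; potency means the concentration at half of the fitted maximal effect; nearly all actives have a fitted effect of over 60% in size; about a fifth of the inactives were tested at one dose only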
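Cells in DMEM/10% FBS with G418 were pretreated with compounds in DMSO plus […] (300 uM stock) for 30 min at 37C. cAMP was measured by HTRF (cAMP-d2 plus anti-cAMP antibody-K) after 30 min at room temperature.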
gsp antag – antagonizes gsp, the McCune-Albright syndrome mutation | gsp-mutant cells, cAMP HTRF, 30 min; control for the full effect not named in the record | Potency, µM (top dose mostly 76.9 µM), without a hit: top-dose activity change, negative = inhibition, actives largely listed as inhibitors | 340,000 tested, 0.4% active | AID 624288; active = falling curve of any shape with a large fitted effect; inconclusive = falling curve, mostly with a smaller effect; inactive = flat or rising curve; cell line not stated here;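 further: intracellular cAMP measured with PDE inhibitor Ro 20-1724 present during compound exposure; potency means the concentration at half of the fitted maximal effect; on the % scale 0 is the no-effect control and ±100 the full control effect; nearly all actives have a fitted effect of over 65% in size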
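Cells, 2000/well, grown 16–24 h in DMEM 10% FBS with 0.5 mg/ml G418, then compounds plus […] (300 uM addition stock), 30 min at 37C. cAMP read by HTRF (cAMP-d2 and anti-cAMP antibody-K in lysis buffer) after 30 min RT.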
D2 PAM – positive allosteric modulators of human D2 dopamine receptor; AID 624464; potentiation, % (test concentration not listed); DiscoveRx D2 beta-arrestin cells, luminescence, 90 min; 100% = 57 uM dopamine signal; 360,000 tested, 0.23% active; active = potentiation of 50% or more; inconclusive = 30% to 50%; inactive = 30% or less;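 further: compound concentration not given in the record; tested on top of an EC20 dose of dopamine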
Target sequence (P14416 whole entry, looked up): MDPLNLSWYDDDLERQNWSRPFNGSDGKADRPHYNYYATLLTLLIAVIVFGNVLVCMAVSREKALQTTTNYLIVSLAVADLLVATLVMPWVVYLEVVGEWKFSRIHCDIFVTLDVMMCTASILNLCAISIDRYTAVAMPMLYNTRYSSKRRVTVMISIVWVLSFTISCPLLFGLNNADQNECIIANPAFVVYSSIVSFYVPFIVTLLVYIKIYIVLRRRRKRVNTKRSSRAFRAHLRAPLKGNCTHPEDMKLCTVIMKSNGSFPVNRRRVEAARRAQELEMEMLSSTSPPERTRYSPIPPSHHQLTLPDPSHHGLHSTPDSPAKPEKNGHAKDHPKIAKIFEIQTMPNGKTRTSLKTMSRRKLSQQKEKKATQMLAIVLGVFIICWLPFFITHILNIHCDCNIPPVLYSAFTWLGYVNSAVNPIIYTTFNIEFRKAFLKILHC
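D2 cells co-treated with compound plus 50 nM dopamine (EC20) for 90 min at 37 deg C to detect potentiation. Beta-arrestin recruitment was read as enzyme-fragment luminescence after 1 h at ambient temperature. Full response was set by 57 uM dopamine.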
ClpP mod – qHTS Assay for Activators of ClpP. ATP-dependent Clp protease proteolytic subunit (Bacillus subtilis (strain 168)), P80244. 340,000 tested, 1.9% active. purified B. subtilis ClpP, FRET peptide cleavage, 20 min. Potency, µM (series often up to 57.5 µM), for the others: top-dose activity change, negative = active; active = well fitted falling curve with a large enough effect; inconclusive = small, poorly fitted or top-dose-only effect; inactive = no such curve, though single readings can be large or run the other way; further: potency means the concentration at half of the fitted maximal effect; the source files actives as falling curves though it sought activators and does not explain the sign; nearly all actives have a fitted effect of over 65% in size; many hits overshoot -100%
Target sequence (P80244 whole entry, looked up): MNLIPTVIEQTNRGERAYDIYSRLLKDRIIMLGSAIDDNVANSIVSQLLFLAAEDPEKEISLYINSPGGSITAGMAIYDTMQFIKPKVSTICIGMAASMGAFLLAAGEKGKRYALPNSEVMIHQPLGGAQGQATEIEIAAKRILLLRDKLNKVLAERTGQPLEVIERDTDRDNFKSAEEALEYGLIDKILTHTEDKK
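Purified B. subtilis ClpP, 10 microg/mL final in Tris/HCl pH8 with KCl, BSA, glycerol and Tween-20, cleaved an Abz/nitrotyrosine-quenched decapeptide. Fluorescence (ex 320, em 430) was read at 0 and 20 min at room temperature. Delta was normalized to 5.8 microM ADEP and DMSO/no-enzyme controls.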
An asterisk follows results filed as active; ? = inconclusive; . = no result given; & = joins results of further samples; [ ] = remark or other dose. An unsorted share of the library; any-hit rate near 5.1%.

Under each structure – TRPV1 potentiator	gsp antag	ClpP mod	gsp ag	D2 PAM	Sfp inh	Menin MLL FP FL
- Cc1[nH]c2ccccc2c1C(=O)C(=O)NCc1nnnn1-c1ccc(F)cc1
→ .	.	1.8%	-47%[inhibitor]	-24	.	.
- N#CCCN1CCN(C(=O)c2c(N)no[n+]2[O-])CC1
→ 4	19%	.	10%[15.4 µM]	7	26%	-0.1
- CCOC(=O)Nc1sc2c(c1C(N)=O)CCC(C)C2 (stereo unspecified)
→ 4	1%	-3.6%	3%	-8	-23%	1.1
- O=C(CNC(=O)/C(=C/c1ccccc1)NC(=O)c1ccc(Br)cc1)OCc1ccccc1
→ 0	-22%	.	-25%	3	13%	-2.3
- O=C(N1CCOCC1)N1CCCN(C(=O)N2CCOCC2)CC1
→ 1	7%	-0.7%	22%	-14	15%	5.5
- COC(=O)CC(N)c1ccc(Br)cc1 (stereo unspecified)
→ 4	8%	.	21%	-2	18%	-3.2
- CCS(=O)(=O)N1CCN(c2ccccc2F)CC1
→ 5	-9%	-3.1%	0%	-6	8%	-1.8
- COc1ccc(-n2c(CNc3ccc(C)cc3)nnc2SCC(=O)Nc2nc(-c3ccccc3)cs2)cc1
→ -3	6%	1.5%	-2%	-10	21%	3.1
- Cc1ccccc1S(=O)(=O)Cc1ccc(C(=O)NCCCN2CCCC2)o1
→ 23	9%	-2.2%	9%	-4	21%	-6.1
- O=C(O)CCCC(=O)N1CC(=O)Nc2ccccc21
→ 1	2%	-3.9%	-52%[inhibitor]	-7	15%	0.6
- S=C(NCCN1CCOCC1)Nc1cccc2ccccc12
→ -15	27%	-8.5%	-40%[inhibitor]	-4	-2%	-2.6
- CCC1CCCCN1C(=O)c1ccc(OC)c(OC2CCN(C(C)C)CC2)c1 (stereo unspecified)
→ 0	12%	-0.1%	-95%[inhibitor]	-19	10%	-3.2
- O=C(CSCc1c(F)cccc1Cl)NNC(=S)NC1CCCCC1
→ 20	-13%	1.8%	-7%	-37	12%	.
- COc1cccc(N2CC(NS(=O)(=O)c3cccnc3)CC2=O)c1 (stereo unspecified)
→ 17	15%	.	-3%[15.4 µM]	-4	.	.
- O=C(CNS(=O)(=O)c1c(Cl)cccc1Cl)OCC(=O)N1CCN(c2ccccc2)CC1
→ 9	-15%	-2.6%	20%[15.4 µM]	-9	-16%	0.0
- Cc1cccc(-c2cc3nc(C)c(C)c(NCCCn4ccnc4)n3n2)c1
→ -5	-18%	.	-3%[15.4 µM]	4	-10%	6.4
- CCCOc1ccc(/C=C/C(=O)NC2CCCCC2)cc1
→ 0	-5%	.	-41%	0	4%	-0.5
- CCCCn1c(N)c(N(CC(C)C)C(=O)COc2cc(C)ccc2Cl)c(=O)[nH]c1=O
→ -1	9%	-1.2%	0%	-26	.	.
- Cc1c(OCC(=O)NCCCN2CCOCC2)ccc2c3c(c(=O)oc12)CCCC3
→ -7	-2%	3.4%	?	-9	14%	1.2
- S=C(NN=Cc1ccc2c(c1)OCO2)NN=Cc1ccc2c(c1)OCO2
→ .	?	.	2%	-6	.	.
- CCN(CC)c1ccc(/C=N/NC(=O)Cc2ccc(OC)c(OC)c2)cc1
→ -1	-11%	.	13%	-12	16%	0.6
- O=C(O)c1ccc(Nc2cc(Cl)c3nonc3c2[N+](=O)[O-])cc1
→ 2	-1%	.	24%[15.4 µM]	12	35µM*	-6.4
- Cc1ccc(-c2nnc(Nc3ccc4c(c3)OCO4)c3ccccc23)cc1S(N)(=O)=O
→ 5	28µM*	0.7%	-1%[15.4 µM]	-9	-4%	0.8
- Cc1ccc(NC(=O)c2ccc(Cl)c(N3C(=O)C=CC3=O)c2)cc1
→ -14	2%[15.4 µM]	-3.3%	2%	-49	2.8µM*	5.3
- CCC(c1nnc(SCC(=O)Nc2nnc(-c3ccccc3)o2)n1Cc1ccccc1)N(C)C (stereo unspecified)
→ -7	-17%	-0.5%	15%	8	-10%	1.6
- CC1=C(C(=O)OCc2ccc3c(c2)OCO3)C(c2ccc(F)cc2)NC(=O)N1 (stereo unspecified)
→ 10	-4%	-0.7%	2%	?	10%	2.2
- C/C=C\C=C/C(=O)Nc1cccc(C2=NOC3(C2)C[C@H](C(N)=O)N(C(=O)Cc2ccc([N+](=O)[O-])cc2)C3)c1 (stereo partly specified)
→ -2	5%	2.0%	.	-6	13µM*	0.8
- CC(=O)c1cccc(NC(=O)c2c(F)c(F)c(F)c(F)c2F)c1
→ 21	-12%	3.3%	14%	-14	-2%	3.0
- Cc1ccc(S(=O)(=O)CCC(=O)OC(C)C(=O)NC2CCCCC2C)cc1 (stereo unspecified)
→ -27	5%	-3.3%	-49%[inhibitor]	-4	.	.
- Cc1cc(Oc2ccc(Cl)cc2)nc(-c2ccccc2O)n1
→ 18	2%	-2.1%	-15%	3	7%	6.7
- Cc1cccc(OCc2nnc(SCC(=O)O)n2-c2ccccc2)c1
→ 11	2%	-3.4%	-30%	-3	7%	-3.2
- O=C(NC1CCCCC1)C(=S)NCCc1ccccc1
→ 6	5%	.	-27%	0	28µM*	-1.3
- CCN(C(=O)CSc1ncccn1)C1CCS(=O)(=O)C1 (stereo unspecified)
→ -3	4%	-0.7%	7%	-9	12%	.
- CCOc1ccccc1OCCOCCOc1c(Cl)cccc1Cl
→ 3	3%	-2.5%	7%	-9	3%	4.3
- CSC1=NC(C)(C)C=C(/C=C/c2ccc(Cl)cc2)N1
→ 15	.	.	-7%[15.4 µM]	-58	40µM*	4.5
- CC(C)C(=O)Nc1nnc(S(=O)(=O)N2CCc3ccccc32)s1
→ 23	7%	-0.6%&0.4%	-49%[inhibitor]	-4	15%	0.8
- Cc1cccc(NC(=O)Nc2cccc(Oc3c(F)c(F)c(F)c(F)c3F)c2)c1
→ -12	-24%	-1.2%	4%	12	30%[activator]	-0.3
- COc1ccc(NC(=S)N(CCc2c(C)[nH]c3ccc(C)cc23)Cc2cccnc2)cc1
→ 5	?	-3.5%	6%	0	-1%	-0.5
- O=Nc1c(O)c2ccccc2c2ccccc12
→ .	-6%	1.7%	.	67*	.	.
- CC(C)Cc1nnc(NC(=O)CCC(=O)NC2CC2)s1
→ 8	8%	-0.1%	-69%[inhibitor]	1	5%	-11
- O=C(CSc1nnnn1-c1cccc2c1CCCC2)N1CCCCC1
→ -4	-15%	-1.7%	10%	-2	6%	2.1
- NS(=O)(=O)c1ccc(CCNC(=O)c2cnc(Cl)c(Cl)c2)cc1
→ 4	-15%	.	7%	-2	-1%	-4.6
- CC(C)[C@H](NC(=O)N1CC(=O)Nc2ccccc21)C(=O)N[C@H](C(=O)O)c1ccccc1
→ -1	24%	-8.0%	27%	-8	11%	-1.4
- Cc1cc(C)c2c(=O)n3c(nc2c1)C(Cc1ccc(O)cc1)NC(=O)c1cccnc1-3 (stereo unspecified)
→ .	.	-5.1%	-51%[inhibitor]	1	.	.
- CCOC(=O)c1c(S(=O)(=O)N2c3ccccc3CC2C)c(C)n(C)c1C (stereo unspecified)
→ -14	1%	-1.6%	-32%[inhibitor]	2	6%	-1.8
- O=c1nc(N2CCOCC2)ccn1-c1nc(-c2ccccc2)sc1-c1ccccc1
→ 22	-16%	3.4%	?	-11	-5%	3.6
- CSS(=O)(=O)c1cccc2cccnc12
→ -2	-6%	.	28%	-5	20µM*	4.9
- CCc1noc(C)c1C(=O)N1CCN(S(=O)(=O)c2ccc(Br)cc2)CC1
→ -1	-10%	-3.4%	-6%	-6	.	.
- CCOC(=O)C(CCCOc1ccc(C(C)CC)cc1)C(=O)OCC (stereo unspecified)
→ -2	-3%	-0.3%	8%	-6	19%	-3.0
- CC(OC(=O)c1cccc(NS(C)(=O)=O)c1)C(=O)Nc1ccc2c(c1)OCO2 (stereo unspecified)
→ 9	-3%	-0.1%	2%	-15	.	.

Remaining list, next part:
Under each structure – TRPV1 potentiator	gsp antag	ClpP mod	gsp ag	D2 PAM	Sfp inh	Menin MLL FP FL
- CC(C)(C)c1cc(CNC(=O)C2CCC(=O)N(Cc3ccccc3F)C2)[nH]n1 (stereo unspecified)
→ .	.	-0.3%	13%	-3	.	.
- O=[N+]([O-])c1ccc(OCCn2cncn2)cc1
→ 1	2%	0.7%	0%	-10	2%	1.2
- COc1cc(C(=O)OCC#N)ccc1OCc1c(C)noc1C
→ -3	-3%	-8.0%	2%	-8	-5%	-1.5
- CCOCCCNC(=O)c1ccc2c(=O)n(Cc3ccc(OC)cc3)c(=O)[nH]c2c1
→ 10	-7%	-13%	-35%[inhibitor]	-12	-2%	6.7
- CC(C)OCCCNC(=O)c1ccc(CS(=O)(=O)c2cccc(C(F)(F)F)c2)o1
→ 12	-1%	-2.6%	?	-13	0%	-12
- CC1(C)Oc2ccc3ccc(=O)oc3c2/C(=C/NNC(N)=O)C1=O
→ -5	-7%	8.3%	-54%[inhibitor]	-75	4%	-1.0
- CC(C)(C)c1ccc(S(=O)(=O)N2CC(C(=O)O)Oc3ccc(Cl)cc32)cc1 (stereo unspecified)
→ ?	-13%	.	7%	0	1%	-3.2
- CN(C)CC(C)(C)CNS(=O)(=O)c1ccc(Cl)cc1
→ ?	-7%	0.9%	9%[15.4 µM]	-33	10%	-3.9
- O=C(NCC(c1ccco1)N1CCc2ccccc2C1)c1ccccc1 (stereo unspecified)
→ -30	3%	0.5%	-33%[inhibitor]	0	.	.
- O=C(Nc1cccnc1)Nc1cccc(F)c1
→ -25	8%	-0.2%	-38%[inhibitor]	-21	20%	-0.5
- CC1Cc2cc(/C(O)=C3/C(=O)C(=O)N(CCN4CCOCC4)C3c3cccc(Cl)c3)ccc2O1 (stereo unspecified)
→ 1	-1%	-2.3%	?	7	7%	-2.2
- O=C1CN(c2ccc(Br)cc2)C(=O)N1CC(=O)N1CCCc2ccccc21
→ -15	-8%	-7.5%	-49%[inhibitor]	3	8%	-3.3
- CCCN(CC(=O)Nc1ccccc1C)C(=O)C1CC(=O)N(c2ccccc2C(C)CC)C1 (stereo unspecified)
→ 14	-2%	-0.8%	?	-6	.	.

Screens as filed in PubChem BioAssay.
